Assay outcomes from PubChem BioAssay.
PK Bst: pyruvate kinase (B. stearothermophilus) modulation; partly purified Bacillus stearothermophilus pyruvate kinase, luminescence ATP production; ribose 5-phosphate activator present at AC10; Potency, µM; 51,000 compounds, 1.2% hits; in the data active means potency below about 11 µM; inconclusive means mostly about 12 µM to 25 µM; inactive means weaker than that;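 the screen sought inhibitors and activators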;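 also: potency is read from the fitted curve at half-maximal effect; scaled between full activation by ribose 5 phosphate and full inhibition by luteolin; about four in five hits inhibit and the cells do not say which; series up to 57 µM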
TsaE inh: YjeE (TsaE) inhibition, E. coli; 71,000 compounds, 0.05% hits; P0AF67; Potency, µM; purified YjeE, fluorescence polarisation of a bound ADP probe; active = well fitted falling curve; inconclusive = weaker or top-dose-only fall, or a rising curve; inactive = flat or poorly fitted curve;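 also: top concentration of the series not given in the record; excess ADP was the control for the full effect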
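Purified YjeE (10 uM) with BODIPY Texas Red-labeled ADP probe (2 uM); compounds pin-transferred, 15 min at room temperature. Binding inhibition read as decreased fluorescence polarization; ADP titration as control.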
An asterisk follows results filed as active; i = inactive; ? = inconclusive; / = not tested or not shown. An excerpt; count on the stated rates, not on these rows.

TsaE inh	PK Bst	compound
i	/	CN(C)c1nc(-c2ccc3c(c2)OCO3)nc2ccccc12
i	/	O=C(CC1Nc2ccccc2NC1=O)c1ccccc1 (centres undefined)
i	>57	CC(C)CCNc1ncnc2c1nnn2Cc1ccccc1Cl
i	>57	CCCOc1cc(C)c(S(=O)(=O)N2CCN(C)CC2)cc1C
i	/	Cc1ncc(CSC(=N)N)n1Cc1ccccc1
i	>57	COCCN1C(=O)C(=O)/C(=C(/O)c2cccc(S(=O)(=O)N(C)C)c2)C12C(=O)N(C)c1ccccc12 (centres undefined)
i	/	CC1(C)CC(N2CCC(=O)N(C3CC(C)(C)NC(C)(C)C3)C2)CC(C)(C)N1
i	/	CN(C)C(=O)c1ccc(-c2cc(NCc3ccccc3)ncn2)cc1
i	>57	O=C1CCN(Cc2nnnn2CC2CCCO2)c2ccccc2N1 (centres undefined)
i	/	COc1c(S(=O)(=O)n2nc(C)cc2C)ccc(Cl)c1Cl
i	>57	FC(F)(F)c1cc(-c2ccco2)nc(N2CCOCC2)n1
i	/	Cc1cccc(NC(=O)C2CCCN(S(=O)(=O)c3cccc4cccnc34)C2)c1 (centres undefined)
i	>57	CCc1cccc(CC)c1N(COC)C(=O)Cn1c(CO)nc2ccccc21
i	?	CCN(CC)C(=O)N1CCN(S(=O)(=O)c2ccc(C)c(C)c2)CC1
i	>57	CC(=O)c1c(C)[nH]c(C(=O)N2CCN(C(=O)c3ccco3)CC2)c1C
i	/	CC(=O)c1ccc(OCC(O)CN2C(C)CCCC2C)cc1 (centres undefined)
i	>57	O=C(NCC1CCCO1)C1C2C=CC3(CN(Cc4cccs4)C(=O)C13)O2 (centres undefined)
i	/	CCN1CCN(CCCNC(=O)c2cc3sccc3n2CC)CC1
i	>57	COC(=O)c1c(NC(=O)Cc2cccs2)sc2c1CCCC2
i	/	CCCCn1c(CN2C(=O)c3ccccc3C2=O)nc2ccccc2c1=O
i	>57	Nn1c(-c2ccco2)n[nH]c1=S
i	>57	CC(O)CCC(=O)NCCNC(=O)CCC(C)O (centres undefined)
i	>57	CCOC(=O)C1CCN(c2c(NCCCN(CC)Cc3ccccc3)c(=O)c2=O)CC1
i	>57	COCc1nnc(NC(=O)c2ccco2)s1
i	>57	CC(NC(=O)c1ccccc1NC(=O)c1ccco1)C(=O)O (centres undefined)
/	>26	CCOC(=O)CC(=O)CSc1[nH]c(=O)cc(C)c1C#N
i	/	Cc1nn(-c2ccccc2)c2sc(C(=O)OCN3C(=O)c4ccccc4C3=O)cc12
i	>57	O=C(O)c1ccc(-c2ccccc2Cl)o1
i	/	O=c1cnc2cncnc2n1Cc1ccccc1
i	>57	Cc1ccc(C(=O)CSc2nnc(-c3ccccc3)n2-c2ccccc2)o1

TsaE inh	PK Bst	compound
i	/	COCC(=O)N1CCC2(CC1)CN(Cc1cc(C(F)(F)F)cc(C(F)(F)F)c1)C2
i	>57	Cc1ccc2cc3cc(C(=O)N(C)C4CCCCC4)oc3nc2c1
i	>57	O=C(Nc1ccc(N2C(=O)C3C4C=CC(C4)C3C2=O)cc1)Nc1cccnc1 (centres undefined)
i	>57	CC(=O)NC(CCS(C)(=O)=O)C(=O)Nc1nc(C)cs1 (centres undefined)
i	>57	O=C(O)c1ccccc1COc1ccccc1Cl
i	/	CCOC(=O)c1c(NC(=O)c2cccs2)sc2c1CCN(C(=O)OCC)C2
i	>57	CC(=O)Nc1ccc(S(=O)(=O)N2C3CCCC2CC(NC(=O)C2CCCCC2)C3)cc1 (centres undefined)
i	/	Nc1c(Br)cc(Br)c(N2CCCC2=O)c1Br
i	>57	Cc1noc(C)c1S(=O)(=O)N1CCC(C(=O)N2CCN(C(=O)c3ccco3)CC2)CC1
i	>57	CCCS(=O)(=O)c1c(S(=O)(=O)CCC)c2c(N)cccn2c1C(=O)c1ccc(F)cc1
i	>57	COc1ccccc1CNC(=O)C1CCCN(S(C)(=O)=O)C1 (centres undefined)
/	>26	CCOC(=O)c1c(C)cccc1OCC(N)=O
i	/	COc1ccc(-c2noc(Cc3ccccc3OC)n2)cc1
i	>57	Cc1ccc(C(C(=O)NC2CCCCC2)N(C(=O)c2csnn2)C2CC2)o1 (centres undefined)
i	>57	COCCn1nnnc1C(c1ccc2ncccc2c1)N1CCN(c2ccccc2F)CC1 (centres undefined)
i	/	C[C@H](NC(=O)c1ccc(Cl)c(Cl)c1)c1ccc(-c2ccccc2)cc1
i	>57	N#C/C(=C/N1CCOCC1)c1ccccc1
i	>57	COc1cc(-c2nnc(SCC#CCO)o2)cc(OC)c1OC
i	>57	Cc1cc(=O)n2c(c1C#N)SC1CCCCC12O (centres undefined)
i	/	Cn1c(=O)c2c(SCC(=O)N3CCOCC3)nc(CC(C)(C)C)nc2n(C)c1=O
i	>57	CN(C)Cc1c(O)ccc2oc(Cc3ccccc3)cc12
i	>57	Cn1cccc1C(C(=O)NC1CCCCC1)N(C(=O)Cc1cccs1)c1ccc2c(c1)OCCO2 (centres undefined)
i	>57	CCCCCC(=O)OC(CN1CCCCC1)CN1CCCC1=O (centres undefined)
i	/	CCOC(=O)Nc1cc(C)c(Cl)cc1OC
i	>57	Cn1c(CNc2nc(-c3ccccc3)cs2)nnc1SCC(=O)N1CCc2ccccc21
i	>57	CCCn1c(SCC(=O)Nc2ccccc2C(=O)OC)nc2c1c(=O)n(C)c(=O)n2C
i	>57	Cc1ccc(-c2nnn(CC(=O)N(Cc3ccco3)C(C(=O)NC(C)(C)C)c3cccs3)n2)o1 (centres undefined)
i	>57	CCOc1ccc(-n2c(SCC(=O)Nc3ccc(OC)cc3OC)nc3c(c2=O)SCC3)cc1
i	/	O=C(c1ccccc1)N1CCn2c(nc3ccccc32)C1
/	>26	CC1(C)CC(=O)C=C(N=CC2=C(O)CC(C)(C)CC2=O)C1

TsaE inh	PK Bst	compound
i	>11	CCN(CC)C(=O)c1sc2nc(-c3ccccn3)[nH]c(=O)c2c1C
i	/	CCN(CC)CC#CCOC(=O)[C@@](O)(c1ccccc1)C1CCCCC1
i	>57	Cc1cc(C)nc(NC(=O)c2c(-c3ccccc3Cl)noc2C)n1
i	/	CCC1=NC(c2ccccc2Cl)N(O)C1(C)C (centres undefined)
i	/	COc1cccc(C2CC(c3cccc(Br)c3)n3nc(N)nc3N2)c1 (centres undefined)
i	>11	Cc1cc(Nc2ncc(Cl)cc2Cl)n[nH]1
i	>57	CCOc1ccc(OCC)c(NC(=O)C2CCCN(c3ncccn3)C2)c1 (centres undefined)
i	/	CCCCCC(=O)Nc1cccc(-c2nc3ncccc3o2)c1
i	>57	COCCn1nnnc1C(c1ccc(OC)cc1OC)N1CCN(c2ccccc2)CC1 (centres undefined)
i	>57	O=C(CCC(=O)Nc1nnc(C2CCCCC2)s1)NCc1cccs1
i	>57	O=C(CN(Cc1ccc2c(c1)OCO2)C(=O)c1cnsn1)NC1CCCC1
i	>57	CCc1ccc2[nH]c(=O)c(C(c3nnnn3CCOC)N3CCN(c4ccccc4F)CC3)cc2c1 (centres undefined)
i	/	CCC(=O)N/C(N)=N/c1nc(C)c2cc(OC)ccc2n1
i	/	O=C(CCCCCNS(=O)(=O)c1ccc(Br)cc1)NCCN1CCOCC1
i	>57	COc1cccc(NC(=O)Cn2c(=O)oc3ccccc32)c1
i	/	CC1(C)CC(CC(=O)O)(c2ccccc2)CCO1 (centres undefined)
i	/	CC1(C)CC(=O)C=C(Nc2ccccc2F)C1
i	>57	COc1ccccc1CNC(=O)C(CCSC)NS(=O)(=O)c1ccc2c(c1)oc(=O)n2C (centres undefined)
i	>57	COc1ccc(CC(NC(C)=O)C(=O)NC2CCN(c3nc(C)cc(C)c3C#N)CC2)c(OC)c1 (centres undefined)
i	>57	O=C(NCCC1=CCCCC1)C1CCN(S(=O)(=O)c2ccc(-n3cnnn3)cc2)CC1
i	>57	Cc1cnc(C(=O)Nc2ccc(-n3cnnn3)cc2)cn1
i	/	c1ccc2c(c1)ccc1cc3c(ccc4ccccc43)cc12
i	>57	CN(CCNC(=O)C1CCN(S(=O)(=O)c2cnc[nH]2)CC1)Cc1ccccc1
i	>57	Cc1ccc(S(=O)(=O)Nc2ccc(Br)cc2/C=N/n2cnnc2)cc1
i	>57	O=C(CN1C(=O)CCS(=O)(=O)c2ccccc21)NCc1ccc(F)cc1
i	/	O=C1CCCC(O)=C1C=NCCc1ccccc1
i	/	CCOc1ccc(NC(=O)c2nnn(CC(=O)Nc3ccccc3OC)c2N)cc1
/	>26	COc1cc(=O)[nH]c(=O)n1CC(=O)c1ccccc1
i	>57	C=C(C)Cn1c(CCNC(=O)C(C)C)nc2ccccc21
i	/	Cc1ccc(-c2nc(CSCC(=O)N3CCN(c4ccccn4)CC3)c(C)o2)cc1

TsaE inh	PK Bst	compound
i	>57	CCOC(=O)c1ccc(NS(=O)(=O)c2ccc3[nH]c(=O)[nH]c3c2)cc1
i	/	CCOC(=O)C(C(=O)Nc1nccs1)C1CCCCC1 (centres undefined)
i	>57	COc1ccc(S(=O)(=O)NCC2CCC(C(=O)NCc3ccco3)CC2)cc1 (centres undefined)
i	>57	Nc1nc2nonc2nc1N1CCCCC1
i	/	CCOC(=O)c1c(CN(CC)CC)oc2cc(Br)c(O)cc12
i	>57	Cc1cccc(N=C2NC(=O)CS2)c1
i	>57	O=C(CNC(=O)c1ccccc1)NCCc1nc2ccccc2[nH]1
i	>57	CC1CCN(S(=O)(=O)c2ccc3ncn(CC(=O)N(C)Cc4ccccc4)c(=O)c3c2)CC1
i	>57	COC(=O)c1sc(S(=O)(=O)N2CCN(c3ccccc3)CC2)c(C(=O)OC)c1C
i	>57	Cc1cc(NC(=O)COC(=O)c2ccc(S(=O)(=O)N3CCCc4ccccc43)cc2)no1
i	>57	COc1cccc2cc(-c3nnc(SCC(=O)Nc4nc(C)cs4)n3C)oc12
i	>57	Cc1nn(-c2ccccc2C(=O)O)c(=O)c2ccccc12
i	/	Cc1nc2ccc(S(=O)(=O)NC(C(=O)NCc3ccco3)C(C)C)cc2s1 (centres undefined)
i	>57	CCOC(=O)Cn1c(C(=O)OCC)cc2sccc21
i	>57	CC1CCN(CCNC(=O)CCS(=O)(=O)c2ccc(Br)cc2)CC1
/	>26	O=S(=O)(c1ccccc1)N(CC(O)CN1CCCCC1)c1ccccc1 (centres undefined)
i	>57	O=C(O)C(c1ccccc1)N1CCCC1 (centres undefined)
i	>57	CCCCCc1c(C)nc(SCC(=O)O)[nH]c1=O
i	>57	COc1ccc2cc(CCNC(=O)CC(C)(C)C)c(=O)[nH]c2c1
/	?	COC(=O)c1ccc(Cn2c(O)c(N=O)c3ccccc32)o1
i	>57	Cc1nc2ccccn2c1/C(O)=C1\C(=O)C(=O)N(CCN2CCOCC2)C1c1ccncc1 (centres undefined)
i	>57	CCOC(=O)N1CCN(C(=O)CCNS(=O)(=O)c2cc(Br)cnc2N)CC1
i	/	O=C(O)c1ccccc1C(c1ccc(O)cc1)c1ccc(O)cc1
i	i	CCCC(=O)N(C)c1nnc(-c2ccc(OC)cc2)s1
i	>57	CC(OC(=O)C1CCN(S(=O)(=O)c2ccccc2)CC1)C(=O)Nc1ncc(Cl)cc1Cl (centres undefined)
i	/	CCCCOC(=O)c1[nH]c2c(c1C)C(=O)CC(c1cc(OC)c(OC)c(OC)c1)C2 (centres undefined)
i	>57	CCOC(=O)Cc1csc(NC(=O)CCNS(=O)(=O)c2ccc3c(c2)CCC(=O)N3)n1
/	>11	CCOC(=O)c1oc2cc(O)cc(C)c2c(=O)c1-c1cscn1
i	>57	N#CNC1=NCN(Cc2ccccc2)CN1
i	>57	COC(=O)c1ccc(OCC(O)CN(CCO)CCO)cc1 (centres undefined)
i	/	Cc1nc2c(c(C)nn2-c2ccccc2)c(C)c1Cl
i	>57	Cc1c(C(=O)NCc2ccc3c(c2)OCO3)oc2ccc(S(=O)(=O)N3CCCC3)cc12
i	>57	Cc1cc(C)nc(N2CCC(C(=O)Nc3ccc(Oc4ccccc4)cc3)CC2)n1

Filtered by structure: the entries above containing an NH in an aromatic ring.
TsaE inh	PK Bst	compound
i	>57	CC(=O)c1c(C)[nH]c(C(=O)N2CCN(C(=O)c3ccco3)CC2)c1C
i	>57	Nn1c(-c2ccco2)n[nH]c1=S
/	>26	CCOC(=O)CC(=O)CSc1[nH]c(=O)cc(C)c1C#N
i	>11	CCN(CC)C(=O)c1sc2nc(-c3ccccn3)[nH]c(=O)c2c1C
i	>11	Cc1cc(Nc2ncc(Cl)cc2Cl)n[nH]1
i	>57	CCc1ccc2[nH]c(=O)c(C(c3nnnn3CCOC)N3CCN(c4ccccc4F)CC3)cc2c1 (centres undefined)
i	>57	CN(CCNC(=O)C1CCN(S(=O)(=O)c2cnc[nH]2)CC1)Cc1ccccc1
/	>26	COc1cc(=O)[nH]c(=O)n1CC(=O)c1ccccc1
i	>57	CCOC(=O)c1ccc(NS(=O)(=O)c2ccc3[nH]c(=O)[nH]c3c2)cc1
i	>57	O=C(CNC(=O)c1ccccc1)NCCc1nc2ccccc2[nH]1
i	>57	CCCCCc1c(C)nc(SCC(=O)O)[nH]c1=O
i	>57	COc1ccc2cc(CCNC(=O)CC(C)(C)C)c(=O)[nH]c2c1
i	/	CCCCOC(=O)c1[nH]c2c(c1C)C(=O)CC(c1cc(OC)c(OC)c(OC)c1)C2 (centres undefined)
